Screens (PubChem BioAssay)
CSC inhib = cancer stem cell viability inhibitors, primary screen, luminescence. cancer stem cell-like cells viability. inhibition, % at 7.5 µM. hit rate 1.1% among 300,000;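 active = mean at 75% or more and at least half the replicates too; inconclusive = mean and replicates disagree; tested in HMLE shEcad cells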;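 note: 0% = median of negative and 100% = median of positive control wells; the first replicate is given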
HIV Env fusion = inhibitors of HIV-1 Env-driven cell-cell fusion, primary screen, HeLa-JRFL effector, CEM21 target cells, luciferase. inhibition, % at 12.3 µM. hit rate 1.1% among 360,000;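 active = mean replicate inhibition score of at least 50 and every replicate individually at or above 50; inconclusive = only one of the two criteria met; inactive = mean below 50 and not all replicates reaching 50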;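 note: 0% = plate neutral controls and 100% = maraviroc near 300 nM; one replicate is shown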
Yeast UUG start = modulators of yeast start codon fidelity, primary screen, whole organism, S. cerevisiae, single point, plate reader; activity score, % at 18.7 µM; hit rate 0.13% among 350,000; AID 602363, 2012; S. cerevisiae UUG-firefly luciferase reporter, luminescence/redox ratio;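 active = replicate mean at a twofold rise or more, about +100% in these data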;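 note: firefly luciferase made from a UUG start codon reports start codon fidelity; reporter light over untreated wells divided by growth signal over untreated wells; some hits fall short of that in this replicate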
eIF4H FP inh = human eIF4H binding inhibitors, primary screen, translation initiation inhibitor project, biochemical, uHTS, fluorescence polarization | eIF4H fluorescence polarization binding assay | inhibition, % at 35 µM | hit rate 0.94% among 290,000;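 active = 50% or more with normal probe brightness, or confirmed in later tests; inconclusive = above 50% with abnormal brightness, or retests that disagree; inactive = below 50% or failed in later tests; about a fifth of its hits are not listed in these tables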;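 note: calls also rest on retests at 20 µM and on dose response follow-up; 0% = protein and probe with vehicle and 100% = probe without protein; strong numbers were not always called active; many hits fall short of the cut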
Rce1 inhib = yeast Rce1p protease inhibitors, primary screen, biochemical, fluorescence, cell-free homogeneous; calls only; AID 2563, 2010; yeast membranes, quenched prenylated peptide cleavage fluorescence; hit rate 0.27% among 290,000; CAAX prenyl protease 2 (Saccharomyces cerevisiae (strain ATCC 204508 / S288c)), Q03530;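 active = fall in fluorescence gain of 50% or more versus controls, with final raw signal at or below 3038400; inconclusive = same 50% fall but final raw signal above 3038400; inactive = fall in fluorescence gain under 50%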;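 note: plate controls were neutral control wells for no effect and wells lacking membranes for full effect; tested at 10 µM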
PABP polyA inh = PABP poly(A) RNA binding inhibitors, primary screen, biochemical, fluorescence polarization, uHTS; hit rate 1% among 290,000; Polyadenylate-binding protein 1 (Homo sapiens), P11940; inhibition, % at 35 µM;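 active = 50% or more with normal probe brightness, or confirmed in later tests; inconclusive = above 50% with abnormal brightness, or retests that disagree; inactive = below 50% or failed in later tests; about a fifth of its hits are not listed in these tables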;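 note: calls also rest on retests at 20 µM and on dose response follow-up; controls were probe without protein and protein plus probe with vehicle; some compounds called inactive have numbers as strong as hits; many hits fall short of the cut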
Target sequence (P11940 whole entry, looked up): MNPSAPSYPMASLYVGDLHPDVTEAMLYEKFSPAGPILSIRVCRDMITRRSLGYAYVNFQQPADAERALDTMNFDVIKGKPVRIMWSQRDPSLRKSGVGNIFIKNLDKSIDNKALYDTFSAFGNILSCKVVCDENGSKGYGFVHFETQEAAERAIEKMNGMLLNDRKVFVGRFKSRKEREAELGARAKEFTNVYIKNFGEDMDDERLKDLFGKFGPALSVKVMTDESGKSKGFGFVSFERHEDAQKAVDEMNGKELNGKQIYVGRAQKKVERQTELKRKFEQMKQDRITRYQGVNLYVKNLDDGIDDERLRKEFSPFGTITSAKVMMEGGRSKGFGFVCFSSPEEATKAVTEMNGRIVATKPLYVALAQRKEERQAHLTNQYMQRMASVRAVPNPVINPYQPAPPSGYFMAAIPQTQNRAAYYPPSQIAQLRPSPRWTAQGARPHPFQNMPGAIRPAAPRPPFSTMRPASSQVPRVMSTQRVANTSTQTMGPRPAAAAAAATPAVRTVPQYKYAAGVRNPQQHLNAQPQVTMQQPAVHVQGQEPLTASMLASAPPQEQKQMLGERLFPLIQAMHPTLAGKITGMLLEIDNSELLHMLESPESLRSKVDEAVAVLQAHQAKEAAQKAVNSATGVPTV
MT1-MMP act inh = blockers of MT1-MMP proenzyme processing, primary screen, HT1080 RFP-PRO-GFP cells, GFP/RFP fluorescence; GFP/RFP ratio fluorescence, overnight; percent of plate control window, DMSO zero; hit rate 0.061% among 360,000; Matrix metalloproteinase-14 (Homo sapiens), P50281; AID 651647, 2012; GFP/RFP ratio change, % at 20 µM;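 active = GFP/RFP ratio change of at least 30% with cell ATP level not reduced by more than half and red fluorescence within 50% of control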; note: strong numbers were not always called active
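Assay system: HT1080 cells carrying an RFP-PRO-GFP reporter | Dosing: Single dose of 20 µM compound, 1% DMSO final | Incubation: Cells overnight before dosing, compound overnight, 37 °C, 5% CO2 | Evaluation: GFP/RFP fluorescence ratio | Control set: DMSO and RFP-L50D-GFP cell wells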
MT1-MMP act inh RFP = also measured in MT1-MMP act inh; calls as there; RFP signal change, %; measured here: RFP expression control read;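 0 = vehicle wells; hits needed this value within 50% of zero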
The depositor's hits bear a star; i = inactive; ? = inconclusive; · = no result given.

SMILES	CSC inhib	HIV Env fusion	Yeast UUG start	eIF4H FP inh	Rce1 inhib	PABP polyA inh	MT1-MMP act inh	MT1-MMP act inh RFP
Cc1noc(NS(=O)(=O)c2ccc(NC(=O)c3cnc4scc(C)n4c3=O)cc2)c1C	-8	-24	-13	-7	i	16	0	3
Cc1ccc(S(=O)(=O)N(C)C)cc1NC(=O)COC(=O)CCC(=O)c1cccs1	-11	8	·	-4	i	10	-2	-1
CCOc1cccc(C(=O)Nc2nc(-c3ccc(S(=O)(=O)N4CCOCC4)cc3)cs2)c1	6	·	-9	-5	i	-6	3	-14
COc1ccc(S(=O)(=O)NC2CCCCC2)cc1-n1cnnn1	-4	9	-6	-8	i	-1	-2	4
O=C(CSc1nnc(-c2ccncc2)n1-c1ccc(Cl)cc1)NCc1cccs1	-16	-42	-16	0	i	-9	-3	-5
O=C(NC(NC(=S)Nc1ccc(Cl)c(Cl)c1)C(Cl)(Cl)Cl)c1ccco1 (stereo not given)	66	·	-9	-1	i	-5	-2	-11
Cc1cc(C(=O)O/N=C(\N)c2ccc(C(C)(C)C)cc2)no1	9	-78	-12	-9	i	10	2	-15
CC(=O)Nc1ccc(OCCCNC(=O)c2c(-c3ccccc3)noc2C)cc1	-1	3	·	-8	i	0	8	-11
COc1ccc(CN2CCNC(=O)C2CC(=O)N(C)Cc2ccon2)c(OC)c1 (stereo not given)	-5	-19	·	-4	i	4	2	4
O=C(c1cccc(S(=O)(=O)N2CCCCC2)c1)N1CCN(Cc2ccccc2)CC1	·	5	-25	·	·	·	3	-5
Cc1ccc2c(c1)C(=O)N1[C@H]3c4cc(Cl)ccc4OC[C@@H]3[C@H](c3ccccc3)[C@]1(C)C(=O)N2	35	-1	16	·	·	·	-18	-9
CCCn1c(N)c(N(CCOC)C(=O)c2ccccc2)c(=O)[nH]c1=O	-9	-37	-17	-12	i	4	3	1
COCCN1C(=O)C(C(=O)OC)CC2=C1CC(C)(C)CC2=O (stereo not given)	·	4	-13	·	·	·	3	6
Clc1ccccc1OCCCCn1ccnc1	1	·	-22	3	i	0	-6	0
CC(C)c1ccc(/C=N/N2CCCCC2)cc1	-4	-48	·	-11	i	-3	2	8
Oc1[nH]c2ccccc2c1C=Nc1ccccc1	-2	-39	-2	-12	i	-6	0	0
Fc1ccc(-n2cc(-c3ccccc3)c3c(=S)nc[nH]c32)cc1	2	12	-29	2	i	-9	-1	-3
COc1ccc(S(=O)(=O)N2CCC(C(=O)Nc3cc(Cl)ccc3N3CCOCC3)CC2)cc1OC	6	·	-7	·	i	·	-20	-17
CCOc1cc(/C=N/O)cc(Br)c1OC	-2	·	-9	-2	i	0	-7	-1
NC(=O)CC(NC(=O)c1ccc(Br)cc1)c1ccc(N2CCCCCCC2)c([N+](=O)[O-])c1 (stereo not given)	131*	-11	-7	-3	i	-1	16	-10

2 of these compounds in another layout.
Molecule,CSC inhib,HIV Env fusion,Yeast UUG start,eIF4H FP inh,Rce1 inhib,PABP polyA inh,MT1-MMP act inh,MT1-MMP act inh RFP
COCCN1C(=O)C(C(=O)OC)CC2=C1CC(C)(C)CC2=O (stereo not given),·,4,-13,·,·,·,3,6
COc1ccc(CN2CCNC(=O)C2CC(=O)N(C)Cc2ccon2)c(OC)c1 (stereo not given),-5,-19,·,-4,i,4,2,4

The list continues.
SMILES	CSC inhib	HIV Env fusion	Yeast UUG start	eIF4H FP inh	Rce1 inhib	PABP polyA inh	MT1-MMP act inh	MT1-MMP act inh RFP
Cc1ccc(S(=O)(=O)N2CCCCC2C(=O)O)s1 (stereo not given)	-3	14	·	-7	i	-7	5	1
O=C(O)CC(SCC(=O)Nc1ccc(Cl)c(S(=O)(=O)N2CCOCC2)c1)C(=O)O (stereo not given)	·	-9	2	-6	i	-4	1	0
C=CCn1c(=O)c2c(C)c(C)sc2n2c(Nc3ccc(OC)cc3)nnc12	1	·	-21	11	i	-12	-4	-6
O=C(COc1ccc(F)cc1)Nc1c(C(=O)N2CCC(N3CCCCC3)CC2)oc2ccccc12	38	10	-10	-14	i	-4	-9	2
CC(C)Cn1c(N)c(C(=O)COC(=O)[C@@H]2CCCN2C(=O)c2cccs2)c(=O)n(C)c1=O	-5	18	·	-2	i	-2	4	0
COc1ccc(-n2c(SCCC#N)nnc2-c2cc(Cl)ccc2OC)cc1Cl	67	-58	-17	·	i	·	-1	-7
COc1ccc(N/C(N)=N/c2nc(CSc3nnc(C)s3)cc(=O)[nH]2)cc1	1	-24	172*	-5	i	-8	-2	-12
CN1C(=O)/C(=C/c2ccc(OCc3ccccc3F)cc2)NC1=S	-9	21	-6	10	i	9	-2	-5
Cc1nc(C)c(C(=O)N2CCCC(C(=O)c3cc(F)ccc3F)C2)s1 (stereo not given)	-4	10	-3	-9	i	7	3	-6
CC(C)(C)Sc1ccccc1S(=O)(=O)C(C)(C)C	-10	20	·	-10	i	-2	1	1
Cc1ccc(-n2cccc2/C=C2/C(=N)N3C(=NC2=O)SN=C3S(C)(=O)=O)cc1Cl	52	2	-7	44	·	-4	-18	15
CCOc1ccccc1NC(=O)C1CCCN(S(C)(=O)=O)C1 (stereo not given)	-10	18	-18	4	i	0	1	1
Cc1sc2nc(SCc3nc(-c4cccs4)no3)n(-c3ccccc3)c(=O)c2c1C	-5	·	-4	-7	i	-11	-5	-2
CC(=O)Nc1ccc(C(=O)NCCCOC(C)C)cc1	-2	-13	-17	13	i	-2	2	1
COc1ccc(OC(=O)COc2ccc(C)cc2)cc1	2	14	4	1	i	-12	-2	0
COc1cccc(OC)c1C(=O)Nc1sc2c(c1C#N)CCC2	7	-8	10	4	i	15	-2	2
CC(OC(=O)CCCc1nc2ccccc2s1)C(N)=O (stereo not given)	-8	·	-9	7	i	-7	0	4
O=c1cc(CCl)nc(Cc2c(Cl)cccc2Cl)[nH]1	15	-18	·	·	i	·	-4	-3
Cc1cc(OCC(=O)C(C)(C)C)c2c(-c3ccccc3)cc(=O)oc2c1	5	36	-13	-8	i	4	2	-1
CCN(CC)C(=O)Cn1cc(S(=O)(=O)CC(=O)Nc2ccccc2C)c2ccccc21	-5	-1	-12	-6	i	3	-4	-5
Cc1cc(-n2nnc3ccccc32)nc2ccccc12	-20	i	-15	-2	i	-7	-5	3
CCC(C)Nc1cc(C)nc2ncnn12 (stereo not given)	-1	12	·	-7	i	-1	-2	1
CS(=O)(=O)N(CC(=O)Nc1ccc2c(c1)OCCO2)Cc1ccc(Cl)cc1	2	·	-6	-2	i	36	0	0
Cc1cccc(OCCSc2nc3c([nH]2)c(=N)ncn3Cc2ccccc2)c1	0	·	-14	-6	i	5	6	2
O=C(NC(=S)Nc1ccccc1Br)C1CC1	0	-112	-26	8	i	2	-5	-1
CC(=O)CC(=O)Nc1ncccn1	7	6	·	1	i	5	-2	1
O=C(/C=C/c1ccco1)Nc1nc(-c2ccc(F)c(F)c2)cs1	3	·	·	-8	i	6	·	·
Cc1ccc2nc(SCC(=O)NC3CCCCC3)nc(=O)n2c1	-6	0	1	·	i	·	-1	-1
CC(C)CCn1c(N2CCCC2)nc2c1c(=O)n(C)c(=O)n2C	-16	-6	-3	1	i	12	1	-1
CCC(C)(C)NC(=O)C(c1ccc(F)cc1)N(Cc1cccc(OC)c1)C(=O)c1cnccn1 (stereo not given)	-19	-6	-7	-9	i	-5	-8	-6
CCCCCCC(=O)Nc1c2c(nc3ccccc13)N(C)CC2	-5	·	-10	-7	i	-12	2	-1
COc1ccccc1C(=O)NC(=S)Nc1ccc(N2CCOCC2)c(Cl)c1	-15	-16	·	-2	i	1	1	-1
O=C(CCN1CCN(S(=O)(=O)c2ccc(Cl)cc2)CC1)Nc1ccc(F)cc1	9	3	2	-17	i	30	2	-11
O=C(NNC(=O)c1ccc(Cl)cc1Cl)c1cccs1	5	-3	-4	-5	i	-19	5	-1
CC(C)c1ccc(C(=O)NNC(=O)C2C3CCC(C3)C2C(=O)O)cc1 (stereo not given)	0	·	·	-5	i	3	·	·
C=CCNC(=O)c1ccc(Sc2ccccc2)c([N+](=O)[O-])c1	·	·	-16	7	i	12	2	4
Cc1nc2scc(C)n2c(=O)c1S(=O)(=O)Nc1ccc(N2CCN(C(=O)C(C)C)CC2)cc1	18	4	-4	-9	i	8	3	-11
CCCCOc1cccc(C(=O)NNC(=S)NC2CCCCC2)c1	·	·	-39	18	i	-19	-1	-10
O=C(c1ccc(F)cc1)N1CCCC(C(=O)N2CCN(c3ccccc3)CC2)C1 (stereo not given)	2	-4	·	3	i	-9	5	0
O=S(=O)(Nc1ccc2c3c(cccc13)CC2)c1ccc(F)cc1	0	·	-6	4	i	10	-5	1

Retrieved by compound from the list above (6):
SMILES	CSC inhib	HIV Env fusion	Yeast UUG start	eIF4H FP inh	Rce1 inhib	PABP polyA inh	MT1-MMP act inh	MT1-MMP act inh RFP
O=C(NC(=S)Nc1ccccc1Br)C1CC1	0	-112	-26	8	i	2	-5	-1
CC(C)c1ccc(C(=O)NNC(=O)C2C3CCC(C3)C2C(=O)O)cc1 (stereo not given)	0	·	·	-5	i	3	·	·
Cc1ccc2nc(SCC(=O)NC3CCCCC3)nc(=O)n2c1	-6	0	1	·	i	·	-1	-1
CCCCCCC(=O)Nc1c2c(nc3ccccc13)N(C)CC2	-5	·	-10	-7	i	-12	2	-1
O=C(/C=C/c1ccco1)Nc1nc(-c2ccc(F)c(F)c2)cs1	3	·	·	-8	i	6	·	·
O=C(c1ccc(F)cc1)N1CCCC(C(=O)N2CCN(c3ccccc3)CC2)C1 (stereo not given)	2	-4	·	3	i	-9	5	0

Following part.
SMILES	CSC inhib	HIV Env fusion	Yeast UUG start	eIF4H FP inh	Rce1 inhib	PABP polyA inh	MT1-MMP act inh	MT1-MMP act inh RFP
O=S(=O)(NCc1ccc(Cl)cc1)c1cccc2cccnc12	-15	-15	·	-4	i	-4	1	0
N#CC1(NC(=O)CSc2n[nH]c(-c3ccccc3)n2)CCCCC1	-2	·	-8	·	i	·	-3	-4
O=C(CSc1ccc(Cl)cc1)Nc1nnc(-c2cccc([N+](=O)[O-])c2)s1	19	·	-13	-1	i	-9	-8	-2
CCOc1ccccc1NC(=O)NS(=O)(=O)c1ccc(C)cc1	-7	12	-7	-2	i	-3	3	4
COc1ccccc1CNC(=O)COc1ccc(C)nc1[N+](=O)[O-]	0	23	14	-4	i	1	2	-7
CN1CC=C2C(C#N)=C(N)C(C#N)(C#N)C(Cc3ccccc3)C2C1 (stereo not given)	0	-28	-5	?	i	-6	-40	-3
Cc1ccc2[nH]c(=O)c(COC(=O)c3cccs3)cc2c1	·	-10	·	-3	i	4	2	4
NC(=O)c1ccc(NC(=O)CCCNC(=O)c2ccc(Cl)cc2)cc1	-15	4	-1	1	i	-2	6	5
CCOC(=O)c1[nH]c2ccc(OC)cc2c1NC(=O)CN1CCSCC1	-1	·	1	0	·	6	-5	-4

An excerpt; rates above refer to the full screens.
